High-throughput results as filed in PubChem.
GCN5L2 inh: qHTS Assay for Inhibitors of GCN5L2 | Histone acetyltransferase KAT2A (Homo sapiens), Q92830 | GCN5L2 HAT assay, ThioGlo1 CoA-SH fluorescence | Potency, µM (highest dose often 58.9 µM), without a hit: top-dose activity change, negative = inhibition, most hits filed as inhibitors | 390,000 compounds, 0.21% hits | AID 504327, 2011; active = well fitted inhibition curve with a large enough effect; inconclusive = small, poorly fitted or top-dose-only effect, or another doubt; inactive = no such curve, though single readings can be large or run the other way
Target sequence (Q92830 whole entry, looked up): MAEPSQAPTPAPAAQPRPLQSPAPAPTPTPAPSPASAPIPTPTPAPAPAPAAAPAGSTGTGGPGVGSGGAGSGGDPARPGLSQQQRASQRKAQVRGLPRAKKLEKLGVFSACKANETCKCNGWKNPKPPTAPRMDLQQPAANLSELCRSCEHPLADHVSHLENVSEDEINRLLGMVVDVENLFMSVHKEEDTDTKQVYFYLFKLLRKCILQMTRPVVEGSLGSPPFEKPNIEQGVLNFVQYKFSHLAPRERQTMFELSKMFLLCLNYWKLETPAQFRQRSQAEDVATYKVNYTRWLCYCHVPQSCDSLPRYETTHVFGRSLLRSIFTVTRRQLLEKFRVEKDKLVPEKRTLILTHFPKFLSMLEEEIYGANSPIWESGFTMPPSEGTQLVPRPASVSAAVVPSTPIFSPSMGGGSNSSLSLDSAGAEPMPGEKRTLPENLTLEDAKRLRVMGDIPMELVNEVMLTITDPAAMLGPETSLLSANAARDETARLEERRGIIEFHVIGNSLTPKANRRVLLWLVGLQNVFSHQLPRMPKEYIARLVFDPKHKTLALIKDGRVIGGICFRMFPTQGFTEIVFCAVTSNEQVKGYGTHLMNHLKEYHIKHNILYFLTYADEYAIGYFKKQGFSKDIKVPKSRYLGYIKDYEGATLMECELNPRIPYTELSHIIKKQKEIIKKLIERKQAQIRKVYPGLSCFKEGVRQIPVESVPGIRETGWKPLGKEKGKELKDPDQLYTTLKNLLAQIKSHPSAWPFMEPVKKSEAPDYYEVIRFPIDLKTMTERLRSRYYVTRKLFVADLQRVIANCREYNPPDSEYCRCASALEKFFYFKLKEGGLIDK
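Compounds, pin-transferred from DMSO stocks, meet 20nM GCN5L2 for 15 min before the reaction begins with H3(1-25) peptide (75uM) and acetyl-CoA (70uM). Thiol-reactive ThioGlo1 reports CoA release over 20 min at room temperature.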
* = called active by the depositor; ? = inconclusive; & = joins results of further samples; [ ] = remark or other dose. % is scaled to controls: 0 for no effect and ±100 for the full control effect; potency is read from the fitted curve at half-maximal effect.

GCN5L2 inh | structure
1.0% | CCCS(=O)(=O)NCCc1cc2cc(C)c(C)cc2[nH]c1=O
-7.4% | Nc1ccc2nc(SCc3cccc(F)c3)sc2c1
-1.6% | COc1ccc(C2=NOC(CNC(=O)c3ccccc3Br)C2)c(OC)c1 (stereo unspecified)
-16.3% | CCn1c(NC(=O)c2ccccc2F)c(-c2cccs2)c(=O)c2ccccc21
-10.5% | COc1ccc(C(=O)N2CCN(Cc3ccc4c(c3)OCO4)CC2)cc1[N+](=O)[O-]
-0.6% | COc1ccccc1NC(=O)/C=C1\SCC(=O)N1C
-6.4% | CN1CCN(c2ccc(-c3ccnn3C(=O)Nc3cccc(C(F)(F)F)c3)cc2)CC1
-2.6% | O=c1oc2ccccc2cc1-c1cn2cc(Cc3ccccc3F)sc2n1
-8.8% | CC1CCN(S(=O)(=O)c2ccc3c(c2)oc(=O)n3CC(=O)NC(C)c2ccccc2)CC1 (stereo unspecified)
-0.3% | COc1ccccc1OCCC(=O)OCC(=O)Nc1ccc2c(c1)OCCO2
-0.1% | COc1ccc(NS(=O)(=O)c2ccc(C(=O)Nc3c(C)n(C)n(-c4ccccc4)c3=O)cc2)cc1
16.9% | N/C(=N\NC(=O)c1cccs1)c1cc2ccccc2oc1=O
-4.7% | Cn1c(C(=O)NC2CC2)cc(=O)n(C)c1=O
-5.5% | CCN(CC)CCNC(=O)c1ccc(NC(=O)c2c(F)cccc2Cl)cc1
-11.5% | COC(=O)C1=C(C)N(C)C(=O)NC1c1ccc(O)c(Cl)c1 (stereo unspecified)
-8.2% | CCOC(=O)C1=C(c2ccccc2)NC(SCC(=O)Nc2cccc(C)c2)=C(C#N)C1c1ccco1 (stereo unspecified)
-16.1% | C[C@H](NC(=O)[C@@H]1Cc2ccccc2CN1C(=O)OC(C)(C)C)C(=O)NC1CCCC1
0.6% | O=C1c2ccccc2C(=O)N1CCC#Cc1ccc2cc(CCO)oc(=O)c2c1
-3.1% | COc1cc(CCC(=O)Nc2c(C(=O)N3CCN(c4ccccc4OC)CC3)oc3ccccc23)on1
-4.7% | CCOc1ccccc1NC(=O)/C=C/c1ccccc1[N+](=O)[O-]
-1.0% | CN(C(=O)CSc1cn(CC(=O)N2CCCC2)c2ccccc12)c1ccccc1
0.3% | Cc1ccc(NC(=O)CSc2nc3ccc(NC(=O)c4cccs4)cc3s2)c(C)c1
0.9% | NC(=O)c1ccccc1NS(=O)(=O)c1ccccc1
-9.9% | O=C(CCN1c2ccccc2Sc2ccccc21)OCC(=O)N1CCN(C(=O)c2ccco2)CC1
-1.7% | Cc1ccc(N2C(=O)[C@@H]3C(c4ccc(F)cc4)=NO[C@@H]3C2=O)cc1
-7.8% | COc1ccc(Br)cc1CNC(=O)c1cnc2sc(N3CCCCCC3)nn2c1=O
-4.2% | c1ccc2sc(SCc3ccc(-c4nnco4)cc3)nc2c1
-8.5% | COc1ccccc1CNC(=O)COC(=O)c1ccccc1-c1ccccc1
-10.3% | COc1ccc(-n2c(SCC(=O)Nc3ccc4c(c3)OCO4)nc3c([nH]c4ccccc43)c2=O)cc1
-8.3% | COCCN(CC(=O)Nc1cccc(S(=O)(=O)N2CCCC2)c1)Cc1nc2ccccc2c(=O)[nH]1

Next part; it opens with the four that closed the last part.
GCN5L2 inh | structure
-4.2% | c1ccc2sc(SCc3ccc(-c4nnco4)cc3)nc2c1
-8.5% | COc1ccccc1CNC(=O)COC(=O)c1ccccc1-c1ccccc1
-10.3% | COc1ccc(-n2c(SCC(=O)Nc3ccc4c(c3)OCO4)nc3c([nH]c4ccccc43)c2=O)cc1
-8.3% | COCCN(CC(=O)Nc1cccc(S(=O)(=O)N2CCCC2)c1)Cc1nc2ccccc2c(=O)[nH]1
1.8% | COc1ccc(C(=O)c2c3ccccc3[n+]([O-])n2CCC(N)=O)cc1
-23.2% | N#Cc1sc2nc(-c3cccs3)cc(-c3ccc(Cl)cc3)c2c1N
0.8% | Cc1ccc(-c2csc3ncn(CC(=O)NCC(c4ccco4)N4CCCC4)c(=O)c23)cc1 (stereo unspecified)
2.5% | O=C(Nc1ccccc1-c1ccccc1NC(=O)c1ccco1)c1ccco1
-1.3% | Cc1cnc(C(=O)OCC(=O)Nc2cc(S(=O)(=O)N3CCCCC3)ccc2Cl)cn1
-3.8% | N#Cc1ccc(NC(=O)Nc2ccc(Oc3ccc(NC(=O)Nc4ccc(C#N)cc4)cc3)cc2)cc1
-6.2% | NC(=O)NC(=O)COC(=O)c1cccc(NS(=O)(=O)/C=C/c2ccccc2)c1
? | COc1ccc(-n2ccnc(SCC(=O)NC3CCCCC3)c2=O)cc1
-0.8% | CC1Oc2ccccc2N(CC(=O)N2CCCc3ccccc32)C1=O (stereo unspecified)
1.6% | COc1ccc2c(CC(=O)Nc3ccc(N4CCOCC4)cc3)coc2c1
-2.1% | Cc1ccsc1CN(C(=O)c1ccc([N+](=O)[O-])cc1)C1CCS(=O)(=O)C1 (stereo unspecified)
-2.9% | CC(O)[C@H]1CNCCN1CCc1cccc(F)c1 (stereo partly specified)
-9.3% | Cc1ccc(C)c(CN2C(=O)c3ccccc3S(=O)c3ccc(C(=O)NCc4ccccc4)cc32)c1 (stereo unspecified)
1.9% | CCN(CC)CCOC(=O)C1(c2ccc([N+](=O)[O-])cc2)CCCC1
-4.3% | CC(=O)N1CCC(N(Cc2ccc(C)o2)C(=O)Nc2cccc(C(F)(F)F)c2)CC1
-2.2% | CC(C)CC1NC2(C(=O)N(C)c3ccccc32)C2C(=O)N(C(C)C)C(=O)C12 (stereo unspecified)
-19.2% | COc1ccc(C(=O)O/N=C/c2c(C(F)(F)F)nn(C)c2SCc2ccccc2Cl)cc1
-3.8% | CCOC(=O)c1cnn(CCOC(=O)Cc2cccs2)c1NC(=O)Cc1cccs1
-5.3% | O=C(O)C1CCN(S(=O)(=O)c2ccc3c(c2)OCCCO3)CC1
-2.3%&-4.2% | CCOc1ccccc1CNC(=O)C1CCCN(c2nnc(C)c3c(C)n(-c4ccccc4)nc23)C1 (stereo unspecified)
-4.0% | CC(=O)Nc1ccc(S(=O)(=O)N2CCN(Cc3ccccc3[N+](=O)[O-])CC2)cc1
-3.0% | C=CCSc1nc(N)c2c(C)c(C)sc2n1
-6.8% | CCOC(=O)C1(Cc2cccc(Cl)c2)CCCN(C(=O)CN2C(=O)CSC2=O)C1 (stereo unspecified)
-8.4% | CC1CCN(S(=O)(=O)c2ccc(C(=O)Nc3sc4c(c3C(N)=O)CC(C)(C)NC4(C)C)cc2)CC1
-1.9% | COc1ccc(OCC(=O)Nn2c(-c3cccc(OC)c3)nc3ccccc3c2=O)cc1
-24.0% | COc1cc(-c2ccc3sc(-c4ccsc4)c(C#CCO)c3c2)cc(OC)c1OC
-14.2% | N#CCSc1nc(Nc2ccc3c(c2)OCO3)c2ccccc2n1
1.9% | COc1cccc(CN2CCNC(=O)C2CC(=O)NC2CCCC2)c1OC (stereo unspecified)
-1.3% | CCn1c(SCC(=O)c2cc(OC)ccc2OC)nnc1C(C)C
-10.9% | CCOc1ccc(OCC)c(NC(=O)Nc2ccc3c(c2)N(C)C(=O)CS3)c1

Six of these compounds in a different format.
| molecule | GCN5L2 inh |
| --- | --- |
| COc1ccc(OCC(=O)Nn2c(-c3cccc(OC)c3)nc3ccccc3c2=O)cc1 | -1.9% |
| COc1cc(-c2ccc3sc(-c4ccsc4)c(C#CCO)c3c2)cc(OC)c1OC | -24.0% |
| N#CCSc1nc(Nc2ccc3c(c2)OCO3)c2ccccc2n1 | -14.2% |
| COc1cccc(CN2CCNC(=O)C2CC(=O)NC2CCCC2)c1OC (stereo unspecified) | 1.9% |
| CCn1c(SCC(=O)c2cc(OC)ccc2OC)nnc1C(C)C | -1.3% |
| CCOc1ccc(OCC)c(NC(=O)Nc2ccc3c(c2)N(C)C(=O)CS3)c1 | -10.9% |

(continued)
GCN5L2 inh | structure
-10.0% | CCN1CCCC1CNC(=O)c1cc2c(=O)n(C)c3ccccc3c2n1C (stereo unspecified)
-26.4% | O=C(Nc1cccnc1Cl)c1cccc(S(=O)(=O)N2CCOCC2)c1
-2.7% | COc1ccc(NC(=O)N2CCC(c3ccccc3)C2)c(OC)c1 (stereo unspecified)
0.9% | O=C(NCc1ccco1)c1cccc(NS(=O)(=O)c2ccccc2F)c1
-0.9% | CC(NCc1cccc(OCc2ccccc2)c1)C(O)c1ccccc1 (stereo unspecified)
7.1% | CCNC(=O)c1cnc2c(-c3ccccc3)c(C)nn2c1C
0.0% | COc1ccc(-n2nnnc2SC(C)C(=O)NCC(=O)Nc2ccc(F)c(F)c2F)cc1 (stereo unspecified)
-4.8% | Cc1ccc(N2C(=O)N(Cc3cc(=O)n4ccccc4n3)c3ccccc3S2(=O)=O)cc1Cl
-5.1% | COC(=O)c1cc(NCc2ccccc2F)ccc1N1CCOCC1
-1.7% | CC(C)c1ccccc1OCCNC(=S)NC(=O)c1cccnc1
-7.4% | COc1cccc(CNC(=O)COC(=O)C23CC4CC(CC(Cl)(C4)C2)C3)c1
0.0% | O=C(CNC(=O)c1ccccc1)NCC(=O)OCC(=O)c1ccccc1
0.8% | CC1Sc2ccc(S(=O)(=O)N3CCC(C(N)=O)CC3)cc2NC1=O (stereo unspecified)
-6.4% | COC(=O)c1ccc(COC(=O)c2cccn2C)o1
-4.3% | CN(CC(=O)Nc1ccccc1C(F)(F)F)C(=O)c1ccc(-c2ccc(Cl)cc2)o1
-1.6% | COc1ccc(Nc2nc(-c3cccnc3)nc3ccccc23)cn1
-6.5% | CCc1ccc(N2CC(O)(c3cccs3)[N+]3=C2SCCC3)cc1 (stereo unspecified)
-1.0% | COc1ccc(Cl)cc1C(=O)NCc1cn(C)nc1C
-3.6% | CCn1cc(C(=O)Nc2ccc(NC(=O)c3ccco3)cc2)c(=O)c2ccc(C)nc21
-5.7% | COc1cccc2cc(C(C)=O)c(=O)oc12
4.2% | O=C(NCC1CCCO1)C1CC(=O)N(C2CCCCCC2)C1 (stereo unspecified)
-3.5% | CCOC(=O)c1ccc(NC(=O)CN2C(=O)CN(C(C)=O)C2=S)cc1
-14.0% | Cc1nc(CNS(=O)(=O)c2ccc(Oc3ccccc3)cc2)cs1
1.4% | CCOc1ccc(S(=O)(=O)NCCC(=O)N2CCCC(C)C2)cc1 (stereo unspecified)
-1.6% | CCCCN(CC)CCCNC(=O)C1c2ccccc2C(=O)N(C)C1c1cn(C)c2ccccc12 (stereo unspecified)
-5.5% | Cc1cc(C)c(S(=O)(=O)Nc2ncn[nH]2)c(C)c1
1.7% | Cc1c(OCC(=O)NC(Cc2c[nH]c3ccc(O)cc23)C(=O)O)ccc2c3c(c(=O)oc12)CCC3 (stereo unspecified)
19.0% | COc1ccc(-c2nnc(Nc3ccc(OC)c(C(=O)N4CCCCC4)c3)c3ccccc23)cc1
-1.4% | O=C(c1cc2c(=O)oc3ccccc3c2s1)N1CCN(c2ccccc2)CC1
-2.6% | CCc1cc2c(NC(Cc3c[nH]c4ccccc34)C(=O)O)nc(C)nc2s1 (stereo unspecified)
1.9% | COc1ccccc1C(=O)N1CCN(CCc2ccccc2)CC1
-8.7% | Nc1cc(-c2ccccc2)nn1Cc1ccc(Cl)cc1
0.0% | CCOC1=NN(c2ncc(C(F)(F)F)cc2Cl)C(=O)/C1=C/N(C)C
-7.5% | O=C(Nc1cccc(O)c1)c1ccc(NC(=O)c2cccs2)cc1
-3.1% | Nn1c(SCc2cccc(Br)c2)nnc1-c1cccnc1
-2.5% | O=C(COC(=O)[C@@H]1CC(O)CN1S(=O)(=O)c1ccc2c(c1)OCCO2)Nc1ccccc1F (stereo partly specified)
5.9% | CS(=O)(=O)N(CC(=O)NCC1CCCO1)c1cc(Cl)c(Cl)cc1Cl (stereo unspecified)
-9.8% | COc1ccc2c(c1)OCC(Cc1ccc(O)c(OC)c1)C2=O (stereo unspecified)
-14.8% | N#C/C(=C/c1cc[nH]c1)C(N)=S
14.3% | N#C/C(=C/c1ccccc1[N+](=O)[O-])C(=O)NCc1ccco1
1.5% | CCOc1ccc(NC(=O)CN2CCN(S(=O)(=O)c3ccc(OC)cc3)CC2)cc1
0.4% | Cc1csc(NC(=O)CSC2=NS(=O)(=O)c3ccccc3N2)n1
1.2% | CC(C)CC(=O)NCCNC(=O)c1cc(OCC(F)(F)F)ccc1OCC(F)(F)F
2.2% | CCOC(=O)c1ccc(NC(=O)CSc2nnc(CNC(=O)c3ccco3)o2)cc1
-12.7% | CN1CCN(c2ccccc2NC(=O)c2ccc(-c3cccc(Cl)c3)o2)CC1
-9.2% | Cc1oc(-c2cccc(Cl)c2)nc1CSCC(=O)NCc1ccccc1Cl
-3.7%&3.6%&-23.7% | CN1C2CCC1CC(OC(c1ccccc1)c1ccccc1)C2 (stereo unspecified)
-0.8% | CCOC(=O)C(=O)Nc1ccccc1C(=O)OC
-7.2% | O=C(Cc1ccc(F)cc1)Nc1c(C(=O)N2CCN(c3ncccn3)CC2)oc2ccccc12
3.6% | COc1ccccc1OCC(=O)NC1CCSc2ccccc21 (stereo unspecified)
-7.4% | COCCCN(CC(=O)Nc1ccc(N2CCOCC2)cc1)S(=O)(=O)c1ccccc1
63.3%[activator] | CCN(CC)S(=O)(=O)c1ccc(NC(=O)c2cccc3c2C(=O)N(CCOC)C3)cc1

Arranged by value in GCN5L2 inh (lowest first): some entries from above.
GCN5L2 inh | structure
-12.7% | CN1CCN(c2ccccc2NC(=O)c2ccc(-c3cccc(Cl)c3)o2)CC1
-9.8% | COc1ccc2c(c1)OCC(Cc1ccc(O)c(OC)c1)C2=O (stereo unspecified)
2.2% | CCOC(=O)c1ccc(NC(=O)CSc2nnc(CNC(=O)c3ccco3)o2)cc1
5.9% | CS(=O)(=O)N(CC(=O)NCC1CCCO1)c1cc(Cl)c(Cl)cc1Cl (stereo unspecified)

This is a subset; most or all hits stand in other tables.
